# High-throughput results: PubChem BioAssay, several laboratories
# CSC inhib: blocks cancer stem cells. inhibition, % at 7.5 µM. cancer stem cell-like cells viability, luminescence. 300,000 tested, 1.1% active;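 active = mean at 75% or more and at least half the replicates too; tested in HMLE shEcad cells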;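 also: 0% = median of negative and 100% = median of positive control wells; the first replicate is given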
# Yeast UUG start: yeast start codon fidelity modulation | activity score, % at 18.7 µM | S. cerevisiae UUG-firefly luciferase reporter, luminescence/redox ratio | 350,000 tested, 0.13% active;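 active = replicate mean at a twofold rise or more, about +100% in these data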;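 also: firefly luciferase made from a UUG start codon reports start codon fidelity; reporter light over untreated wells divided by growth signal over untreated wells; some hits fall short of that in this replicate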
# Rce1 inhib: blocks yeast Ras-converting enzyme; Q03530; yeast membranes, quenched prenylated peptide cleavage fluorescence; calls only; 290,000 tested, 0.27% active; AID 2563;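 active = fall in fluorescence gain of 50% or more versus controls, with final raw signal at or below 3038400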;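 also: plate controls were neutral control wells for no effect and wells lacking membranes for full effect; tested at 10 µM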
# eIF4H inh: inhibitors of RNA binding by human eIF4H; eIF4H fluorescence polarization binding assay; inhibition, % at 35 µM; 290,000 tested, 0.94% active;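 active = 50% or more with normal probe brightness, or confirmed in later tests; about a fifth of its hits are not listed in these tables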;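 also: calls also rest on retests at 20 µM and on dose response follow-up; 0% = protein and probe with vehicle and 100% = probe without protein; strong numbers were not always called active; many hits fall short of the cut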
# HIV Env fusion: HIV envelope-mediated fusion inhibition. HeLa-JRFL Env/CEM21 cell fusion, luciferase. inhibition, % at 12.3 µM. 360,000 tested, 1.1% active. AID 651610;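 active = mean replicate inhibition score of at least 50 and every replicate individually at or above 50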;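 also: 0% = plate neutral controls and 100% = maraviroc near 300 nM; one replicate is shown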
# PABP FP inh: PABP-poly(A) binding inhibition; PABP-poly(A) RNA binding, fluorescence polarization; 290,000 tested, 1% active; P11940; AID 2014; inhibition, % at 35 µM;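 active = 50% or more with normal probe brightness, or confirmed in later tests; about a fifth of its hits are not listed in these tables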;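 also: calls also rest on retests at 20 µM and on dose response follow-up; controls were probe without protein and protein plus probe with vehicle; some compounds called inactive have numbers as strong as hits; many hits fall short of the cut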
# Target sequence (P11940 whole entry, looked up): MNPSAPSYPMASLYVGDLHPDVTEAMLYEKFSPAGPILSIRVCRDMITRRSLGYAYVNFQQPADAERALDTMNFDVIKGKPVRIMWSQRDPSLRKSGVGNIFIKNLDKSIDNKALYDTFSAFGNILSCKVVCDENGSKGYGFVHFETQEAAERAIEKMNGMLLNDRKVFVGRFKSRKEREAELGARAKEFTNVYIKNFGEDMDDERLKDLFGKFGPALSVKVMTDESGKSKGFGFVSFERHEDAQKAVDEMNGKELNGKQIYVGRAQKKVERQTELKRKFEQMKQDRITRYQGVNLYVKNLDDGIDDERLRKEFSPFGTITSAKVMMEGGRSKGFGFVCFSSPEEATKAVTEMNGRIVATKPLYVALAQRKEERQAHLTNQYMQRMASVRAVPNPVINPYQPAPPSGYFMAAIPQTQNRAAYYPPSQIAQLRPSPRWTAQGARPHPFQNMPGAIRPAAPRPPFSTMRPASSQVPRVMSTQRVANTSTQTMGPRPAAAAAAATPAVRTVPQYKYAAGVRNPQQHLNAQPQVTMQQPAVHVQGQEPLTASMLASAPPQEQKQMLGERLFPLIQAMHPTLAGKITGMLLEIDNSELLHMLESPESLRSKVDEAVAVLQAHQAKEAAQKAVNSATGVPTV
# MT1-MMP act inh: MT1-MMP (human) activation inhibition | P50281 | HT1080 RFP-PRO-GFP cells, GFP/RFP ratio fluorescence, overnight; percent of plate control window, DMSO zero | GFP/RFP ratio change, % at 20 µM | 360,000 tested, 0.061% active;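 active = GFP/RFP ratio change of at least 30% with cell ATP level not reduced by more than half and red fluorescence within 50% of control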; also: strong numbers were not always called active
#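 Assay system: HT1080 RFP-PRO-GFP cells | Dosing: 20 µM single dose, 1% DMSO | Incubation: Cells overnight before dosing, compound overnight, 37 °C, 5% CO2 | Evaluation: GFP/RFP fluorescence ratio | Control set: DMSO-only wells and HT1080 RFP-L50D-GFP cell wells as references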
# eIF4H inh retest: second read-out of eIF4H inh, no call of its own (marks repeat the call); inhibition, %; compound at 20 µM; confirmation average;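 mean of two retest wells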
# PABP FP inh retest: also measured in PABP FP inh; calls as there; inhibition, %; compound at 20 µM; confirmation repeats;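 mean of two retest wells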
# MT1-MMP act inh RFP: further read-out of MT1-MMP act inh, marked with its call; RFP signal change, %; measured here: RFP expression control read;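 0 = vehicle wells; hits needed this value within 50% of zero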
# The depositor's hits bear a star; i = inactive; . = not tested or not shown.
# The first 4 entries, to show the layout:
SMILES,CSC inhib,Yeast UUG start,Rce1 inhib,eIF4H inh,HIV Env fusion,PABP FP inh,MT1-MMP act inh,MT1-MMP act inh RFP,others
CCN(CC)C(=O)[C@H]1CC(CC(=O)NCCc2ccccn2)C(=O)N2CCc3c([nH]c4ccccc34)[C@]12C (stereo not given in full),-10,-2,.,.,6,.,2,2,
Cc1nnc(Cn2cnc3c2c(=O)n(C)c(=O)n3C)o1,-13,-18,i,-10,8,0,-2,3,
CCOc1ccc(CCNC(=O)COC(=O)c2ccc(C)c(S(=O)(=O)N3CCOCC3)c2)cc1OCC,.,-5,.,.,-18,.,0,4,
COC(=O)[C@H](CC(C)C)NC(=O)N1CCCCC1C (stereo not given in full),-8,.,i,-7,3,4,-1,4,

# The listing, repeating the preview:
SMILES,CSC inhib,Yeast UUG start,Rce1 inhib,eIF4H inh,HIV Env fusion,PABP FP inh,MT1-MMP act inh,MT1-MMP act inh RFP,others
CCN(CC)C(=O)[C@H]1CC(CC(=O)NCCc2ccccn2)C(=O)N2CCc3c([nH]c4ccccc34)[C@]12C (stereo not given in full),-10,-2,.,.,6,.,2,2,
Cc1nnc(Cn2cnc3c2c(=O)n(C)c(=O)n3C)o1,-13,-18,i,-10,8,0,-2,3,
CCOc1ccc(CCNC(=O)COC(=O)c2ccc(C)c(S(=O)(=O)N3CCOCC3)c2)cc1OCC,.,-5,.,.,-18,.,0,4,
COC(=O)[C@H](CC(C)C)NC(=O)N1CCCCC1C (stereo not given in full),-8,.,i,-7,3,4,-1,4,
C=CCOc1c(CNn2cn[nH]c2=S)cccc1OC,-19,.,i,-2,-2,-8,1,1,
Cc1nn(C(C)C(=O)NCCCN(Cc2ccccc2)C(C)C)c(=O)c2c1sc1ccccc12 (stereo not given),1,-4,i,-12,2,-6,1,-4,
COc1cccc(NC(=O)Nc2ccccc2Br)c1,-4,-16,i,-6,5,-7,0,-4,
NC(=O)C1(N2CCCCC2)CCN(C(=O)CSc2nc3ccccc3o2)CC1,.,-6,i,.,.,.,2,7,
O=C(COc1ccccc1Cl)Nc1ccc(Cl)cn1,-2,-31,i,1,-225,7,3,11,
COc1ccc(NC(=O)n2ncc3cc(Cl)ccc32)cc1OC,10,12,i,-8,-35,3,5,2,
O=C(NC1CCCCC1)C1CCN(C(=O)c2ccc(-c3ccccc3)cc2)CC1,9,.,i,4,14,13,-2,-3,
On1nnc2ccccc21,-6,-12,.,-6,-17,-12,-7,-4,
CC(=O)Nc1ccc(NC(=O)C2CCCN2C(=O)Nc2ccc(F)cc2)cc1 (stereo not given),-9,-6,i,-3,0,11,-4,0,
CC1Cc2ccccc2N1C(=O)CSc1nnc(N)s1 (stereo not given),14,-23,i,-5,-4,-4,1,1,
CCOC(=O)C1CCCN(C(=O)CN2C(=O)c3ccccc3S2(=O)=O)C1 (stereo not given),-5,-11,.,.,.,.,-1,2,
CC1CCC/C(=N\NC(=O)COc2ccccc2Cl)C1 (stereo not given),-1,-9,i,-3,5,-6,-3,0,
Nc1c(C(=O)Nc2ccc3c(c2)OCCO3)nnn1Cc1ccc(Br)cc1,-11,-12,i,.,-146,.,9,1,
Cc1ccc(NC(=O)Nc2ccc([N+](=O)[O-])cc2)nc1,-8,.,i,-6,38,-4,-8,-3,
CC(=O)N(NC(=O)c1ccc(C)cc1)C1CC(=O)N(c2ccccc2Cl)C1=O (stereo not given),36,-15,i,-3,26,10,0,4,
CCOC(=O)N1CCN(C(=O)CN(c2ccc(OCC)cc2)S(C)(=O)=O)CC1,-2,0,i,6,-11,-3,-1,0,
N#Cc1ccc(OCC(=O)OCC(=O)Nc2sccc2C(N)=O)cc1,-7,-23,.,.,.,.,3,8,
COc1cccc(-n2c(SCc3cc(=O)oc4cc(O)c(O)cc34)nc3ccccc3c2=O)c1,100*,-17,i,106,-8,-10,7,3,eIF4H inh retest=0;PABP FP inh retest=4
CC(C)Nc1nc(NC(C)C)nc(C(=O)OCCO)n1,-12,0,i,-1,13,11,-2,3,
Cc1nnc(NC(=O)CSc2nnc(C)c(=O)n2N)s1,7,-13,i,-2,.,4,-1,1,
CC(C)CCN1CCN(CC(c2ccccc2)c2ccccc2)CC1CCO (stereo not given),57,9,i,5,-26,-7,-10,-9,
CCC(=O)NC(=S)Nc1ccc(NC(=O)c2cccnc2)cc1,-9,.,i,-10,10,6,.,.,
COC(=O)[C@H](Cc1ccccc1)NC(=O)N1CCN(Cc2ccccc2)CC1,-2,-13,i,0,-26,-2,5,1,
COc1cc(OC)c(OC)cc1CN1CCc2ccccc2C1,-3,-14,i,1,.,5,-3,2,
COCCC(=O)N1CCCC(CNS(=O)(=O)c2ccc(OC)cc2)C1 (stereo not given),-5,.,i,-6,8,1,-4,-2,
COc1ccc(C(=O)Nc2ccccc2C(=O)N2CCCCC2C)cc1 (stereo not given),10,.,i,-4,-18,-7,-3,-1,
COc1ccc(C2C(C(C)=O)=C(O)C(=O)N2c2nccs2)cc1OC (stereo not given),-2,.,i,5,.,0,3,1,
OC(c1ccc(F)cc1)c1nc(-c2cccs2)cs1 (stereo not given),.,-23,.,.,-14,.,1,2,
CCC(=O)Nc1ccc(C(=O)Nc2ccc3c(c2)OCO3)cc1,-1,-8,i,-5,.,0,5,1,
Cc1oc(-c2ccc(Cl)cc2)nc1CN1CCC(C(=O)NCc2ccco2)CC1,-8,-8,i,4,.,1,5,2,
Cc1ccccc1C(=O)Nc1nnc(S(=O)(=O)N2CCCCC2)s1,11,0,i,7,-201,0,4,-2,
Cc1sc2nc(CSc3ccc([N+](=O)[O-])cc3)[nH]c(=O)c2c1C,-6,.,i,52,.,8,.,.,eIF4H inh retest=5;PABP FP inh retest=1
COc1ccc(C(C(=O)NCC2CCCO2)N(Cc2ccccc2)C(=O)CNC(=O)c2ccco2)cc1OC (stereo not given),13,6,i,-1,9,19,2,2,
O=C(CCSc1nnc2scc(-c3ccccc3)n12)NCc1ccc2c(c1)OCO2,-17,-23,i,-9,-93,-4,4,5,
COc1cc(CNC(=O)CCCCCCC(C)C)ccc1O,31,5,.,.,32,.,6,-1,
CCCCOc1ccc(C(=O)NCC(=O)N(C)Cc2nc3ccccc3c(=O)[nH]2)cc1,-6,-16,.,.,.,.,5,-2,
CCn1c(=O)n(CC)c2cc(N3CCCC3)c(NC(=O)c3ccccc3Br)cc21,-11,-12,i,-10,19,8,4,3,
Cc1ccc(OCC(=O)NNC(=O)C2CC(=O)N(c3ccc4c(c3)OCCO4)C2)cc1 (stereo not given),-4,.,i,.,5,.,4,3,
COc1ccc2oc(=O)c(C(=O)NC3CCCCCC3)cc2c1,.,-9,i,-5,-17,12,1,0,
Fc1ccccc1OCCCCCN1CCCC1,-12,-17,i,-6,7,1,1,2,
CC1=[N+](C)N(c2ccccc2)C(=O)C1N=Cc1ccc(Cl)cc1 (stereo not given),-15,.,.,1,-10,-9,4,8,
COCCNS(=O)(=O)c1cc(C(=O)O)ccc1OC,-8,.,i,-6,-7,0,0,6,
CC(Oc1ccc(Cl)cc1Cl)C(=O)Nn1cnnc1 (stereo not given),-9,-16,.,-6,-45,9,4,0,
O=C(O)c1cc(N2C(=O)CCC2=O)ccc1Cl,1,-18,i,-10,7,-4,4,3,
CCCOc1ccc2c(=O)c(N3C(=O)c4ccccc4C3=O)c(C)oc2c1,-1,-9,i,4,-357,-6,4,-4,
COc1ccc(S(=O)(=O)NC2CC2)cc1C(=O)N1CCOCC1,-6,.,i,6,19,-4,0,5,
COc1cc(Br)c(CC(=O)O)cc1OC,3,.,i,4,-40,13,.,.,
COc1ccc(CN2C(=O)c3cccnc3C2Nc2ccc(OC)c(Cl)c2)cc1 (stereo not given),.,-1,i,2,.,0,3,-3,
COC(=O)C1=C(C)N(C)C(=O)NC1c1ccc(C)cc1 (stereo not given),-6,-6,i,-2,-33,-3,3,0,
O=C(CSc1nnnn1-c1ccccc1)N1N=CCC1c1ccccc1 (stereo not given),14,.,i,5,.,-4,-3,3,
O=C1C=Cc2cccc3ccc(O)c1c23,.,-23,.,.,10,.,-9,-9,
COCCCNC(=O)Cc1c(C)c2c(cc(C)c3c(C(C)(C)C)coc32)oc1=O,71,-11,i,-2,-295,11,-6,-11,
Cc1ccc(C)c(NC(=O)CSc2nnc(-c3ccco3)o2)c1,-12,-10,i,-1,.,13,4,8,
COc1cccc(/C=N/NC(N)=S)c1OCc1ccccc1Cl,11,.,i,-4,-49,-2,-1,-6,
CCN(CC)C(=O)c1ccc(-c2nnc(Nc3ccc(C(=O)N(C)C)cc3)c3ccccc23)cc1,3,-8,.,5,8,-4,3,7,
COc1cc(/C=N/OCC(=O)Nc2cc(C)cc(C)c2)ccc1OCc1ccc(Cl)cc1,37,.,i,0,-79,-8,-2,-6,

# More structures follow.
SMILES,CSC inhib,Yeast UUG start,Rce1 inhib,eIF4H inh,HIV Env fusion,PABP FP inh,MT1-MMP act inh,MT1-MMP act inh RFP,others
CNC(=O)CN1C(=O)c2cccc3cccc1c23,-27,-13,i,-3,.,4,0,3,
COc1cc2c(cc1OC)/C(=C/C(=O)c1ccc(OC)c([N+](=O)[O-])c1)NCC2,5,-9,i,-8,23,-8,4,-2,
Cc1ccc(C)c(N2N=C(C(=O)Nc3cccnc3)CCC2=O)c1,.,-21,.,.,13,.,-1,1,
O=C1c2ccccc2S(=O)(=O)N1CCCN1C(=O)c2ccccc2S1(=O)=O,.,-10,.,.,-1,.,4,-1,
COc1ccc(CNC(=O)Cc2nn(C)c(=O)c3ccccc23)cc1,-3,.,i,-8,.,-6,-2,-25,
C[C@@H](CN=[N+]=[N-])CN1CC[C@H](C(C)(C)C)CCC1=O,-11,-5,i,4,12,-3,1,4,
COc1ccc(S(=O)(=O)NCc2cccnc2)cc1NC(=O)c1ccc(C)cc1,9,-22,i,.,6,.,4,0,
Cc1nc2ccc(NC(=O)C3COc4ccccc4O3)cc2s1 (stereo not given),3,.,i,.,-37,.,-2,-3,
COc1cc(OC)cc(C(=O)N2c3ccc(F)cc3CCC2C)c1 (stereo not given),8,-5,i,-5,7,5,-5,-7,
CN1CCN(C(=O)/C(C#N)=C/c2ccc(F)cc2)CC1,-8,.,i,2,8,-12,-2,0,
O=c1cc(CSc2ccccn2)nc(N2CCN(c3ccccc3)CC2)[nH]1,-4,-19,i,5,-63,7,-3,3,
CCCC(C(=O)NCCC(C)C)N(Cc1ccc(F)cc1)C(=O)c1snc(C(N)=O)c1N (stereo not given),-20,-12,i,-8,-67,11,1,-1,
O=C(O)c1c2c(nc3ccc(S(=O)(=O)N4CCC(C(=O)NCc5ccccc5Cl)CC4)cc13)CCCC2,-6,-14,i,3,-12,21,-4,-2,
O=c1[nH]c2ccccc2nc1/C=C(\O)C1CC1,-20,-9,i,-4,-12,3,6,7,
COc1ccc(N2CCN(CC(=O)c3ccc(O)cc3O)CC2)cc1,9,0,i,-6,7,-6,-1,3,
O=C(CCc1nnc(C2CCCCC2)o1)N1CCC(Oc2cccnc2)CC1,14,.,i,0,8,0,-4,-4,
C=Cc1ccc(Cn2c(=O)n(CCCOC)c(=O)c3sccc32)cc1,-12,8,i,-5,5,2,0,-7,
COCCNC(=O)C1c2ccccc2C(=O)N(CCOC)C1c1ccc(F)cc1 (stereo not given),-7,1,i,-10,-50,0,7,4,
O=C(CSc1nc2ccccc2c(=O)n1-c1ccc(F)cc1F)Nc1ccc2c(c1)CCC2,-3,.,i,2,13,8,-6,-8,
O=C(c1ccc2c(=O)n3c(nc2c1)CCC3)N1CCN(S(=O)(=O)c2ccccc2Br)CC1,.,7,.,.,-6,.,-5,-2,
CCCCN(C(=O)CCC(=O)Nc1cc(C)on1)C(C(=O)NC(C)(C)C)c1cccc(OC)c1OC (stereo not given),.,10,i,-10,.,-4,3,7,

# Not all compounds are listed, so the mix of outcomes need not match the whole.
